# CtBP-E1A inh: qHTS Assay for Inhibitors of the CtBP/E1A Interaction; CtBP / adenovirus E1A interaction (AlphaScreen); AlphaScreen GST-E1A/His-CtBP binding, 1536-well; stronger effect = lower value; control for the full effect not named in the record; activity change, % (no concentration beside the values); hit rate 0.49% among 340,000; in the data active means activity change below about -65%; inconclusive means about -30% to -65%; inactive means above about -30%; note: % is set by controls: 0 for no effect and ±100 for the full control effect; compound concentration not given in the record
#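 In 5 uL wells, 23 nL compound meets equimolar GST-E1A and His-CtBP (5X stock 125 nM each) for 2 h, 37 °C. Beads (5X, 50 ug/mL) then 1 h, 37 °C, dark.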
# TRPV1 potentiator: HTS Assay for Compounds that Act as Potentiators of the Vanilloid Receptor 1. potentiation, % at 8.33 µM. hit rate 0.02% among 320,000. TRPV1-expressing cells, Fluo-8 calcium influx, capsaicin EC20 potentiation; host cell line not named in the record; control for the full effect not named in the record; active means potentiation above 80%; inconclusive means 30% to 80%; inactive means below 30%; note: 0% is about no effect
#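 Cells expressing TRPV1 were dye-loaded with Fluo-8 and read kinetically: 10 s baseline, 3 min after compound (agonist portion), then 2 min after EC20 capsaicin (allosteric enhancer portion). Calcium-bound dye fluorescence at 480/520 nm.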
# PINK1 expr mod: A Quantitative High throughput Screen to Identify Chemical Modulators of PINK1 Expression. AID 624263, 2012. hit rate 0.2% among 410,000. Potency, µM (series often up to 76.6 µM), without a hit: top-dose activation (PINK1 increase), actives largely listed as activators. PINK1 immunofluorescence, high-content cytometry, 24 h; active = well fitted activation curve with a large enough effect; inconclusive = small, poorly fitted or top-dose-only effect; inactive = flat fitted curve, though single readings scatter; cell line not stated here;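 note: potency is the fitted concentration of half-maximal effect; % of control where 0% means no effect; nearly all actives have a fitted effect of over 65% in size; a mitochondrial uncoupler was the plate control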
#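 Stable cell line, 250 cells/well, 12 h attachment; compounds pinned at 5 concentrations, 24 h; CCCP control. Fixed with nuclear dye, primary antibodies 12 h at 10 degrees C, secondary plus cell stain; laser-scanning cytometer read.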
# D2 PAM: Beta-Arrestin HTS for Positive Allosteric Modulators of the Human D2 Dopamine Receptor: Potentiators; D(2) dopamine receptor (Homo sapiens), P14416; hit rate 0.23% among 360,000; potentiation, % (test concentration not listed); DiscoveRx D2 beta-arrestin cells, luminescence, 90 min; 100% = 57 uM dopamine signal; active = potentiation of 50% or more; inconclusive = 30% to 50%; inactive = 30% or less;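 note: compound concentration not given in the record; tested on top of an EC20 dose of dopamine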
#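 D2 cells co-treated with compound plus 50 nM dopamine (EC20) for 90 min at 37 deg C to detect potentiation. Beta-arrestin recruitment was read as enzyme-fragment luminescence after 1 h at ambient temperature. Full response was set by 57 uM dopamine.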
# Sfp PPTase inh: qHTS Assay for Inhibitors of Bacillus subtilis Sfp phosphopantetheinyl transferase (PPTase) | 4'-phosphopantetheinyl transferase ffp (Bacillus subtilis), Q9F4F7 | Biochemical Sfp PPTase activity, qHTS | Potency, µM, for inactives: max response, negative = inhibition, actives largely listed as inhibitors | hit rate 3.5% among 310,000; active = well fitted inhibition curve with a large enough effect; inconclusive = small, poorly fitted or top-dose-only effect, or another doubt; inactive = no such curve, though single readings can be large or run the other way;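 note: the enzyme is Sfp with the accession as filed and its product quenches rhodamine fluorescence; potency is the fitted concentration of half-maximal effect; 0% = enzyme reaction without inhibitor and -100% = no enzyme wells; top concentration of the series not given in the record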
#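 Buffer: 50 mM Hepes-Na pH 7.6, 10 mM MgCl2, 0.01% Nonidet P-40, 0.01% BSA. Enzyme 15 nM, pre-exposed to compound 15 min; substrates then added and fluorescence change tracked over 30 min.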
# D2 agonist: Beta-Arrestin HTS for Positive Allosteric Modulators of the Human D2 Dopamine Receptor: Agonists. D(2) dopamine receptor (Homo sapiens), P14416. DiscoveRx PathHunter D2 beta-arrestin, luminescence, 90 min; 100% = 57 uM dopamine signal. activation, % (no concentration beside the values). hit rate 0.084% among 360,000. AID 624465, 2012; in the data active = activation above about 40%; inconclusive = about 15% to 40%; inactive = below about 15%; note: compound concentration not given in the record; the text of the record calls up to 30% inactive
#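 DiscoveRx PathHunter D2 beta-arrestin cells (2,100/well) attached overnight, then compound-stimulated 90 min at 37 C in HBSS/10 mM HEPES/0.1% Tween-20 buffer; beta-galactosidase complementation read by luminescence after 1 h at ambient temperature. Dopamine 57 uM final (EC100) as control.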
# Six1-Eya2 blk: qHTS Assay for Inhibitors of the Six1/Eya2 Interaction | Homeobox protein SIX1 (Homo sapiens) + Protein phosphatase EYA2 (Homo sapiens), … | AlphaScreen GST-Six1/His-Eya2 binding, biochemical; stronger effect = lower value; control for the full effect not named in the record | activity change, % (no concentration beside the values) | hit rate 0.56% among 360,000 | AID 651725, 2012; in the data active = activity change below about -65%; inconclusive = about -30% to -65%; inactive = above about -30%; note: % is set by controls: 0 for no effect and ±100 for the full control effect; compound concentration not given in the record
# Target sequence (O00167 whole entry, looked up): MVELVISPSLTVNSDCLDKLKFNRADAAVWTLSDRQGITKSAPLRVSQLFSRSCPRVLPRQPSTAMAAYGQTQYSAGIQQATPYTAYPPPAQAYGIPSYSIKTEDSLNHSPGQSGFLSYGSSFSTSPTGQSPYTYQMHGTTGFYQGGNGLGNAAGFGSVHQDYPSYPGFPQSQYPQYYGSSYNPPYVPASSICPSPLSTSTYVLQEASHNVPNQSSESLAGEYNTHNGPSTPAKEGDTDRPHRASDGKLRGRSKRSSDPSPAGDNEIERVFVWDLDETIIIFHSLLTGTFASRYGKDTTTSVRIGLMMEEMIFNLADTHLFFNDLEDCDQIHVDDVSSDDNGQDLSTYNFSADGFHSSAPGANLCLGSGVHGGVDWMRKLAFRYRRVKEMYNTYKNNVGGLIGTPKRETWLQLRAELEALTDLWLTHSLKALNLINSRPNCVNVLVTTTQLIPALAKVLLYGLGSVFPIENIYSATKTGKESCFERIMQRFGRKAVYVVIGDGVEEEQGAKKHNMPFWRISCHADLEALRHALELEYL
# Target sequence (Q15475 whole entry, looked up): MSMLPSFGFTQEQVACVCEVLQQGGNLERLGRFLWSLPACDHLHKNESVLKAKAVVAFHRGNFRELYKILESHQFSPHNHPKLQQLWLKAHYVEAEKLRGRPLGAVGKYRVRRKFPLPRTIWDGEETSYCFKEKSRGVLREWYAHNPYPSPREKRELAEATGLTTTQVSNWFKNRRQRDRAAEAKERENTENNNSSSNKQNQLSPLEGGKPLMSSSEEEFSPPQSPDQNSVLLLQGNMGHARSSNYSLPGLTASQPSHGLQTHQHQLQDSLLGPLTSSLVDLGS
#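 Six1/Eya2 binding was read as AlphaScreen signal after compounds were pinned into GST-Six1 plus His-tagged Eya2 (5X stock 250/500 nM) in pH 8.0 Tris/NaCl/TCEP buffer, beads added, then incubated 1 h, 37 C, dark.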
# An asterisk follows results filed as active; u = inconclusive; x = no result given; [ ] = dose if it differs, or a comment. Outcome played no part in choosing rows; about 3.7% have a hit in one of these screens.
# Values run as follows: CtBP-E1A inh	TRPV1 potentiator	PINK1 expr mod	D2 PAM	Sfp PPTase inh	D2 agonist	Six1-Eya2 blk
COc1ccccc1CCNC(=O)C(=O)NCC1OCCN1S(=O)(=O)c1ccc2c(c1)OCCO2 (stereo not given)
 : 3	-5	0.8%	-6	-1%	-4.7	-1
CCCCN(C(=O)c1ccc(N2C(=O)c3ccccc3C2=O)cc1)c1c(N)n(CC(C)C)c(=O)[nH]c1=O
 : 8	-7	-0.6%	19	x	-2.1	4
Cc1ccc(C(=O)Nc2nn(C)c3cccc(F)c23)cc1
 : -3	x	1.7%	-5	-3%	-3.8	6
Cc1ccc(S(=O)(=O)OCC(=O)Nc2ccc(C(=O)O)c(O)c2)cc1
 : 4	x	-3.8%	-8	x	-0.9	-15
CCOc1cccc(-c2csc(C3COc4ccccc4O3)n2)c1 (stereo not given)
 : 13	3	u	-15	5%	0.3	9
COc1ccc(S(=O)(=O)Cc2ccc(C(=O)NC3CCC(C)CC3)o2)cc1 (stereo not given)
 : -2	2	-0.8%	-4	10%	-0.6	-2
C=CCSc1nnc(-c2ccccc2NC(C)=O)c(=O)[nH]1
 : 1	-1	0.9%	-24	-2%	-2.3	-4
COc1ccc(-c2cc3c(c4c2ccn4C)C2CCC3C2)cn1 (stereo not given)
 : -20	x	3.1%	0	x	-3.3	-22
Cc1ccccc1NC(=S)NCc1ccc(F)cc1
 : -9	13	0.6%	-8	9%	-3.1	-2
Cc1ccc(NC2c3ncccc3C(=O)N2Cc2cccs2)cc1C (stereo not given)
 : -4	-6	-1.6%	-5	4%	-5.1	-7
O=C1NC[C@H](CCCCN2CCN(CCC3CCCCC3)C(=O)C2=O)N(CC2CCCCC2)C1=O
 : 7	x	-0.7%	x	x	x	5
COc1ccccc1OCC(=O)NCC(C)NC(=O)COc1ccccc1OC (stereo not given)
 : 6	1	-4.1%	-23	x	-3.7	2
COc1ccccc1-c1cc(N)n[nH]1
 : -3	9	0.7%	1	-6%	0.9	5
O=C(N/C(=C/c1ccc(Br)cc1)C(=O)N1CCOCC1)c1ccc(Br)o1
 : -2	-5	1.9%	-5	1%	2.1	1
COc1ccc(/C=N/c2oc(-c3ccccc3)cc2C#N)cc1OC
 : -16	0	-1.2%	0	79µM*	2.7	1

# Additional results:
# Values run as follows: CtBP-E1A inh	TRPV1 potentiator	PINK1 expr mod	D2 PAM	Sfp PPTase inh	D2 agonist	Six1-Eya2 blk
COc1ccc(CNC(=O)C2CCN(S(=O)(=O)c3ccc4c(c3)NC(=O)C(C)S4)CC2)cc1 (stereo not given)
 : 1	12	0.0%	-6	-1%	0.3	2
O=C/C(=C\Nc1ccccn1)c1nc2ccccc2o1
 : -14	-17	2.9%[38.3 µM]	3	-20%	0.0	-8
CCOC(=O)CNc1cccc(C(F)(F)F)c1
 : 16	2	2.1%	0	20%	2.7	7
O=C(Nc1ccc(Cl)cc1)Nc1ccccn1
 : 10	7	-0.1%	-4	6%	-1.7	2
CSc1ccccc1NC(=O)C1=CC(c2ccc(C)cc2)=NS(=O)(=O)N1C
 : -3	u	0.3%	-11	18%	-1.6	-5
Cc1nc(/N=C(\N)NC(=O)N2c3ccccc3Sc3ccccc32)nc2ccccc12
 : -7	6	3.1%	55*	1%	5.7	-22
COc1ccc(Br)cc1C(=O)O
 : 9	u	1.0%	-13	18%	-0.3	1
Cc1cc(-n2c(SCC(=O)NCc3cccs3)nc3n[nH]c(C)c3c2=N)ccc1Cl
 : -8	9	u	2	26%	4.5	-1
CCNC(=O)c1ccccc1NC(=O)c1cccc(S(=O)(=O)N2CCC(C)CC2)c1
 : -2	-4	-1.4%	-12	11%	2.6	-11
CCCCCCCCNCCS(=O)(=O)NC1CCCCC1
 : 6	x	-0.7%	-15	x	0.5	2
COc1cc(SC)ccc1C(=O)Nc1ccon1
 : -1	9	-1.7%	-12	1%	-6.0	-8
COc1ccc(S(=O)(=O)N2CCCCCC2)cc1NC(=O)CN(C)Cc1ccc2c(c1)OCO2
 : u	6	-1.6%	-5	x	-4.2	u
COCCN(C/C=C/c1ccccc1)C/C=C/c1ccccc1
 : 5	-20	7.4%	-12	-19%	0.8	6
O=C(CSc1nnc(CCc2nc3ccccc3[nH]2)n1-c1ccccc1)NCc1ccccc1
 : 1	5	-0.9%	-14	13%	-0.8	-10
COc1ccccc1C(=O)Nc1ncc2c(n1)CC(c1ccco1)CC2=O (stereo not given)
 : 5	-10	-5.5%[38.3 µM]	-8	-26%	-0.4	-8

# Other compounds follow:
# Values run as follows: CtBP-E1A inh	TRPV1 potentiator	PINK1 expr mod	D2 PAM	Sfp PPTase inh	D2 agonist	Six1-Eya2 blk
Cc1ccc(S(=O)(=O)N2c3ccccc3CC2C)cc1 (stereo not given)
 : 59	-12	4.2%	4	15%	-1.1	33
COc1ccc(-n2nnnc2SCC(=O)N2CCCc3ccccc32)cc1OC
 : -13	8	0.6%	-17	1%	-2.1	-2
O=C(CN(c1ccccn1)S(=O)(=O)c1ccccc1)Nc1ccccc1
 : x	-6	1.6%	-8	21%	3.4	-2
Brc1ccc(CSc2ncn[nH]2)cc1
 : -1	25	-1.3%	2	-10%	-2.2	13
CC(=O)Nc1nc(CC(=O)c2ccccc2)cs1
 : 2	-4	1.1%	-8	11%	-5.4	-3
CN(C)c1ccc(C(=O)c2ccccc2C(=O)O)c(O)c1
 : 6	8	-2.2%	7	7%	-2.5	1
Cc1ccc(S(=O)(=O)N2CCC(C(=O)N[C@@H](C)C(=O)Nc3ccc4c(c3)OCO4)CC2)cc1
 : -13	-6	0.3%	-11	18%	1.8	-2
NS(=O)(=O)c1cc2c(cc1Cl)NC(C1CC3C=CC1C3)NS2(=O)=O (stereo not given)
 : -1	6	0.3%	7	11%	-3.8	1
COc1ccc(N(CC(=O)NCCc2ccc(S(N)(=O)=O)cc2)S(=O)(=O)c2c(C)noc2C)cc1
 : 1	15	-0.3%	0	7%	-1.1	-1
C=C1CCC[C@]2(C)C[C@H]3OC(=O)C(CNC(C)CCCC(C)C)[C@H]3CC12 (stereo not given in full)
 : 5	18	-3.4%	-7	3%	-4.0	9
CC1CCCCN1CCCNc1ccc(C(CC(N)=O)NC(=O)Cc2ccc(Cl)cc2)cc1[N+](=O)[O-] (stereo not given)
 : 5	-15	1.6%	-6	11%	-3.7	10
O=C(Nc1ccc(-c2nc3ccccc3[nH]2)cc1)c1ccc(N2C(=O)CCC2=O)cc1
 : -3	17	5.0%	-6	-8%	-2.7	7
CC(=O)Nc1nc(C)c(-c2csc(Nc3cccc(C(C)=O)c3)n2)s1
 : x	13	-0.9%	9	-9%	-4.4	u
CCN(CC)CCCNC(=O)Cn1cc2c(n1)CCC(C)C2 (stereo not given)
 : 9	-2	2.3%	-1	22%	2.3	0
Cc1cccc(N2CCN(c3ccc(N4C(=O)CCCC4=O)cc3[N+](=O)[O-])CC2C)c1 (stereo not given)
 : -21	23	-0.1%	-3	-8%	-0.2	0

# Full records from above. Screens in order: CtBP-E1A inh	TRPV1 potentiator	PINK1 expr mod	D2 PAM	Sfp PPTase inh	D2 agonist	Six1-Eya2 blk
# Profile of `C=C1CCC[C@]2(C)C[C@H]3OC(=O)C(CNC(C)CCCC(C)C)[C@H]3CC12` (stereo not given in full) : 5	18	-3.4%	-7	3%	-4.0	9
# Profile of `CN(C)c1ccc(C(=O)c2ccccc2C(=O)O)c(O)c1` : 6	8	-2.2%	7	7%	-2.5	1
# Profile of `Cc1ccc(S(=O)(=O)N2CCC(C(=O)N[C@@H](C)C(=O)Nc3ccc4c(c3)OCO4)CC2)cc1` : -13	-6	0.3%	-11	18%	1.8	-2
# Profile of `CCN(CC)CCCNC(=O)Cn1cc2c(n1)CCC(C)C2` (stereo not given) : 9	-2	2.3%	-1	22%	2.3	0
# Profile of `COc1ccc(N(CC(=O)NCCc2ccc(S(N)(=O)=O)cc2)S(=O)(=O)c2c(C)noc2C)cc1` : 1	15	-0.3%	0	7%	-1.1	-1

# Additional structures follow.
# Values run as follows: CtBP-E1A inh	TRPV1 potentiator	PINK1 expr mod	D2 PAM	Sfp PPTase inh	D2 agonist	Six1-Eya2 blk
Clc1ccc(SCCCCN2CCNCC2)cc1
 : 2	-31	1.8%	-4	4%	-5.6	-2
COc1ccc(CNc2nc3ccccc3n2CCN2CCOCC2)cc1
 : 11	9	1.0%	-9	13%	-3.2	5
O=C(NCCOc1ccccc1)c1ccc2n[nH]nc2c1
 : 0	-18	0.5%	1	x	1.4	2
CN1C(=O)C(C)(C)c2cc(S(=O)(=O)N3CCC(C(=O)Nc4ccc(Cl)cc4)CC3)ccc21
 : -1	5	u	-6	14%	13	-4
CC(=O)NC1=NN(C(C)=O)C(C)(c2ccc(Br)cc2)S1 (stereo not given)
 : 4	-2	3.0%	-2	8%	-1.6	8
COc1cccc(OC)c1C(=O)Nc1ccc(S(=O)(=O)Nc2cc(C)nc(C)n2)cc1
 : 3	13	-1.6%	-2	18%	-0.8	-2
Cc1cc(N2CCOCC2)nc2ccc(NC(=S)NCCC(C)C)cc12
 : -3	16	6.0%	-32	-12%	2.8	-7
COCCN(C(=O)COC(=O)c1cccc2ccccc12)c1c(N)n(Cc2ccccc2)c(=O)[nH]c1=O
 : -17	6	u	0	-7%	-5.1	2
CN(Cc1ccccc1)C(=O)CCSc1nc(-c2ccc3c(c2)OCO3)cc(C(F)(F)F)n1
 : 6	5	0.9%	-15	1%	0.3	9
NC(=O)C1CCN(C(=O)CCC(=O)c2ccc(F)cc2)CC1
 : x	15	2.3%	-9	-1%	-0.5	-6
O=C(Nc1cccc(CCc2ccccn2)c1)c1cc(F)c(F)cc1Cl
 : 5	-1	0.1%	-2	-7%	-4.6	1
O=S(=O)(c1ccc(OC(F)(F)F)cc1)N1CCC(O)(c2cccc(C(F)(F)F)c2)CC1
 : x	-15	u	-8	28%	-5.4	8
Cc1sc(NC(=S)NC(=O)c2ccc(C(C)(C)C)cc2)c(C#N)c1C
 : -5	5	8.1%[38.3 µM]	1	-25%	-2.6	-5
